Ecoli growth: E. coli growth inhibition | Escherichia coli growth, OD600, 23 h; stronger effect = lower value | OD600 absorbance (test concentration not listed) | 0.21% of 330,000 active | AID 1053175;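 active = OD600 absorbance below the run mean of sample wells minus 3.6 SD, in any replicate, cut at about 0.56 in these data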;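 also: stock transfer was 300 nL into about 60 µL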
LANA-H2B inh: blocks KSHV LANA binding to histone H2A/H2B; Q9QR71; cell-free LANA-H2A/H2B peptide, fluorescence polarization; inhibition, % (concentration not given with the values); 0.6% of 320,000 active; AID 2629; in the data active = inhibition mostly above about 10%, no sharp cut-off; inactive = mostly below about 6.7%;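 also: stock transfer was 7.5 nL into about 10 µL; 0% = median of vehicle wells and 100% = median of positive control wells; one replicate is shown; the record names a cut of 25% in any replicate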
ALR inh: human ALR oxidase inhibition via reduced H2O2. P55789. purified ALR, DTT oxidation, H2O2 HRP-luminol luminescence. inhibition, % (no concentration beside the values). 3.8% of 290,000 active;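 active = mean and each replicate at 75% or more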;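 also: stock transfer was 7.5 nL into about 7.5 µL; 0% = neutral wells and 100% = wells with inactivated enzyme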
Beta2AR agonist: agonists of human beta-2 adrenergic receptor inducing internalization; response, % (concentration not given with the values); Am2.2-beta2AR cells, FAP receptor internalization, flow cytometry; reference of the scale not given here; 0.43% of 340,000 active;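 active = response above a set limit, near 3 SD of response in nonfluorescent compounds, cut at about 42% in these data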;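 also: stock transfer was 100 nL into about 11 µL; a reference agonist was the positive control; negative values mostly stem from fluorescent compounds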
Target sequence (P07550 whole entry, looked up): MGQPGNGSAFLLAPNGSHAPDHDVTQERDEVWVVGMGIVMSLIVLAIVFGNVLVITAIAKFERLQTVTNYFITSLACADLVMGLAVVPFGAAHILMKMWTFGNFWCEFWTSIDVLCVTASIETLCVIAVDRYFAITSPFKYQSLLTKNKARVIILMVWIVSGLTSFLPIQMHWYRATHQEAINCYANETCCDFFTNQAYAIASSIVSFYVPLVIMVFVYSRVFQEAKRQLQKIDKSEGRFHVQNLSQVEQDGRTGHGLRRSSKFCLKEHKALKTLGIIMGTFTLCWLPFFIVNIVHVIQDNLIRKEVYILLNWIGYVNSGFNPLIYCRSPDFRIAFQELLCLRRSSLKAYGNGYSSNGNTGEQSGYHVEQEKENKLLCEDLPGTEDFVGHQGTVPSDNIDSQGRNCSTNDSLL
UCH37 inh: human UCH37 deubiquitinating enzyme inhibition. purified proteasome/UCH37, Ub-AMC cleavage fluorescence. 0.33% of 330,000 active. inhibition, % (concentration not given with the values);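 active = mean of two replicates above 20%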;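 also: 0% = compound-free wells with enzyme and 100% = wells lacking proteasome; stock transfer was 100 nL into about 20 µL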
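Material: Human UCH37 enzyme supplied as purified proteasome complex | Schedule: 30 min preincubation with enzyme, 25 min cleavage at room temperature | Detection: AMC fluorescence 355/460 nm | Measure: % inhibition of Ub-AMC cleavage fluorescence | Controls: Wells without proteasome as full block, compound-free enzyme plus substrate as uninhibited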
FGF22 binding: shifts melting point of recombinant human FGF22; Q9HCT0; recombinant FGF22 thermal shift, SYPRO orange fluorescence; percent of sucrose octasulfate shift, DMSO zero; calls only at 9.99 µM; 1.5% of 340,000 active; AID 651658;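 active = melting point raised past a set limit in the mean and every replicate; three in four hits are not shown here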
Target sequence (Q9HCT0 whole entry, looked up): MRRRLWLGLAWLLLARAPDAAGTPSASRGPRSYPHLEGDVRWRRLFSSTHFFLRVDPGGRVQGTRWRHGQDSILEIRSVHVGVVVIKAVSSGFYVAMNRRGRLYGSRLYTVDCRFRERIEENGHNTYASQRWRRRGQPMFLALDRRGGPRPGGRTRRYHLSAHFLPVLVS
HNF4A DNA FP: change in binding of human HNF4 alpha to DNA. P41235. HNF4a-FITC DNA binding, fluorescence polarization, 1 h. activity change, % at 10 µM. 0.3% of 360,000 active. AID 1224865; in the data active = activity change above about 30%, passing the limit was not always enough;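 also: controls were the assay level and a saturating level of protein; the project sought stronger binding though the title names inhibitors; some compounds called inactive have numbers as strong as hits; positive values seem to mean higher polarization but the record does not say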
Target sequence (P41235 whole entry, looked up): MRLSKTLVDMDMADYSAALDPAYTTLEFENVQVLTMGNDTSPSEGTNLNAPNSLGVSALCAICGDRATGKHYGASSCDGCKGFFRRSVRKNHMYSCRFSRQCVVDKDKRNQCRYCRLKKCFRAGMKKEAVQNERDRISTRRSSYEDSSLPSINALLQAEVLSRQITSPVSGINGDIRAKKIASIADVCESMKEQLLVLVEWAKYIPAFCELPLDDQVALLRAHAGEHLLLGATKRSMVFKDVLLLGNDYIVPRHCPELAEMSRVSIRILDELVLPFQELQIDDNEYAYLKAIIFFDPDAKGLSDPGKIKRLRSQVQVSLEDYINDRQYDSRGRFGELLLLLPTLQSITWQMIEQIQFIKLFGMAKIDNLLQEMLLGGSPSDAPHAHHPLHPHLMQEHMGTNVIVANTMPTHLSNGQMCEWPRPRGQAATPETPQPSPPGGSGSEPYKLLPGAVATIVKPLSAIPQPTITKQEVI
Active calls of the source: *; i = inactive; . = not tested or not shown. An excerpt (hit frequency here may not be typical).

Second line of a record: Ecoli growth, LANA-H2B inh, ALR inh, Beta2AR agonist, UCH37 inh, FGF22 binding, HNF4A DNA FP
1) COc1ccc(OC)c(CCNC(=O)c2ccc(CS(=O)(=O)c3ccc(Br)cc3)o2)c1
  0.691, 2.0, 1.1, 6.6, 1.1, i, -1.4
2) COCCn1c(SCc2nc(N)nc(Nc3ccccc3C)n2)nc2ccccc2c1=O
  0.743, 0.2, -2.1, -3.2, -0.5, i, 0.7
3) CC1CC(C)(C)CC2(C1)NC(=O)N(CC(=O)OCC(=O)Nc1cc(S(=O)(=O)N3CCCCC3)ccc1Cl)C2=O (stereo unspecified)
  0.719, ., ., -17.1, 1.6, i, 1.9
4) O=C1CC(Sc2nnc(-c3ccccc3)o2)C(=O)N1c1ccccc1 (stereo unspecified)
  0.664, 3.7, ., 1.8, -2.0, ., -1.1
5) Cc1cc(-n2c(C)cc(C(=O)CSc3nncn3C)c2C)no1
  0.712, 0.1, 5.5, -3.9, -0.3, i, 6.5
6) Cc1cccc(OCCCN2CCOCC2)c1
  0.663, 7.5, 0.9, -3.4, 2.8, i, 3.2
7) CCSc1ccc(-c2ccc(C)cc2)nn1
  0.644, ., ., 5.0, 0.8, i, -1.4
8) Cc1cc(NC(=O)COC(=O)C2=NN(c3ccccc3)C(=O)CC2)c([N+](=O)[O-])cc1C
  0.627, 2.2, 20.5, 11.4, 2.7, i, 1.0
9) O=C1CCCCCC1C1(O)C(=O)Nc2ccccc21 (stereo unspecified)
  0.697, -8.4, 6.6, -3.3, 1.8, ., -0.2
10) COc1ccc(/C=C/c2nc3ccccc3c(=O)o2)cc1
  ., 2.3, 5.7, 7.9, ., i, -4.1
11) CCOC(=O)Cn1c(-c2ccc(OC)cc2)c(-c2ccc(OC)cc2)nnc1=O
  0.659, 1.2, -6.0, 0.8, 5.0, i, 32.7*
12) CC(NC(=O)COc1ccc(Br)cc1)C(=O)O (stereo unspecified)
  0.68, -2.2, -0.9, -4.5, 5.8, ., 0.2
13) COc1ccc(-n2c(Cn3c(=O)sc4ccccc43)nnc2SCC(=O)N2CCOCC2)cc1
  0.743, 0.8, -0.3, -6.3, 7.3, i, -2.8
14) Cc1ccc(CS(=O)(=O)c2ncc(Cl)c(C(=O)Nc3ccc(OC(F)F)cc3)n2)cc1
  ., -4.2, -6.0, 27.0, ., i, 5.0
15) Fc1cccc(Nc2nc(-c3ccncc3)nc3ccccc23)c1
  0.665, 1.4, 4.5, 2.0, -61.0, i, 5.8
16) Cc1cc(NC(=O)c2ccc(Cl)cc2)n(CCOC(=O)c2ccc(Cl)cc2)n1
  0.644, 3.0, -1.6, 1.2, 2.0, ., 0.1
17) COc1ccccc1NC(=O)CN1CCSc2ccccc21
  0.699, 1.2, 80.5*, 1.8, 4.7, i, -1.1
18) CCOc1ccc(NC(=O)COc2ccc(C(=O)NC(C)c3ccc(S(N)(=O)=O)cc3)cc2OC)cc1 (stereo unspecified)
  0.669, -1.9, -6.9, -4.3, 6.1, i, -15.0
19) CCN(C(=O)COC(=O)C1=COCCO1)c1ccccc1
  0.656, 4.5, ., -2.9, 1.9, i, 8.5
20) CC1COc2ccccc2N1C(=O)c1cccnc1Cl (stereo unspecified)
  0.662, 3.1, 4.8, -1.9, 3.9, i, 0.0
21) CCOC(=O)N1CCC(NC(=O)c2cc(COc3ccccc3SC)on2)CC1
  0.698, 3.9, -19.2, -5.2, 1.8, i, 2.4
22) CC(C)(C)OC(=O)NCCCCCC(=O)N/N=C/c1coc2ccccc2c1=O
  ., -1.5, ., 3.5, ., i, -0.9
23) CCCCc1c(C)c2ccc(OC)c(/C(C)=N\O)c2oc1=O
  ., -0.3, 1.0, -10.4, ., ., 2.8
24) COC(=O)c1c(NC(=O)CCCC(=O)O)sc(C)c1C
  0.631, 0.9, 19.8, 10.6, -1.5, ., -0.3
25) COC(=O)C1C(c2ccc(Cl)cc2)NC(c2ccc(Cl)cc2)C(C(=O)OC)S1(=O)=O (stereo unspecified)
  0.663, 5.1, -7.0, 6.8, 3.4, i, 1.2
26) CC1CCCCN1CCNC(=O)C1CC(=O)N(c2ccc(F)c(Cl)c2)C1 (stereo unspecified)
  0.656, 7.1, -4.7, -4.8, 3.2, ., 0.8
27) CC1CCC(NC(=O)c2ccc(N3CCCC3=O)cc2)CC1 (stereo unspecified)
  0.639, -1.0, 2.8, -3.3, 4.1, ., 2.9
28) Cc1ccc(N2CC(C(=O)OCC(=O)Nc3cccc(Cl)c3C)CC2=O)cc1 (stereo unspecified)
  0.661, ., ., -0.5, 4.2, i, 3.4
29) OCCC1CN(Cc2cnc(-c3ccc(Cl)cc3)nc2)CCN1C1CCCCC1 (stereo unspecified)
  0.663, 0.5, -6.0, -1.2, 1.3, i, 4.0
30) CN(CC(=O)Nc1ccc(OC(F)(F)F)cc1)C(=O)/C=C/c1ccco1
  0.7, 2.3, -6.2, 8.3, 5.3, i, 0.0

Next part
Second line of a record: Ecoli growth, LANA-H2B inh, ALR inh, Beta2AR agonist, UCH37 inh, FGF22 binding, HNF4A DNA FP
31) CCOc1ccc(-c2nnc(-c3cccnc3)o2)cc1OCC
  0.704, 4.4, -5.0, -8.0, -7.0, ., 6.4
32) Cc1cccc(NC(=O)CNC(=O)CN2CCN(C)CC2)c1C
  0.682, 2.4, -2.8, -1.0, -0.2, i, -1.8
33) CC(=O)c1ccc(NC(=O)Nc2ncn(Cc3cccc(C)c3)n2)cc1
  0.697, 2.3, -7.6, -10.9, 5.0, ., 2.5
34) COC(=O)c1ccc2c(=O)n(CCN3CCOCC3)c(SCC(=O)Nc3ccc(C)cc3)nc2c1
  0.672, ., 99.0*, -5.0, 3.0, i, 3.8
35) CCc1ccccc1NC(=O)COc1ccc2c(c1)OCO2
  0.682, 4.3, ., -1.6, 1.2, i, 4.2
36) COc1ccc(-c2cn(-c3ccc(C)cc3C)c(=O)[nH]2)cc1OC
  0.75, -2.2, ., 2.3, -6.4, i, 9.7
37) COCCNC(=O)Nc1ccc2nc(-c3ccco3)c(-c3ccco3)nc2c1
  0.714, 9.8, -3.2, 6.3, -157.7, i, -61.1
38) Cc1ccc(NC(=O)CN(C)C(=O)Cc2coc3cc(C)c(C)cc23)cc1
  0.677, ., ., 18.9, 1.1, i, 0.5
39) COc1ccc(-c2nnc(NC(=O)c3cc(C)on3)s2)cc1
  0.725, -4.3, 0.2, -1.7, 10.3, ., 0.3
40) CCOC(=O)c1c(-c2ccc(C)s2)csc1NC(=O)c1cccs1
  0.698, -1.5, -9.4, 2.8, -111.0, ., -1.4
41) Cc1ccc(CNC(=O)C2CCN(S(=O)(=O)N3CCCCC3)CC2)cc1
  0.673, -2.5, -0.4, 3.5, 0.1, i, 2.8
42) CCc1ccc(NC(=O)CNC(=O)[C@@H]2Cc3ccccc3CN2)cc1
  0.706, -3.9, -7.8, 10.5, 2.4, i, 3.7
43) CC(C)=CCN1CCN(Cc2cccc3c2OCO3)CC1CCO (stereo unspecified)
  0.679, -0.3, -2.1, -1.0, 1.0, i, 0.5
44) C/C(N)=C(/C#N)C(=O)COC(=O)c1cc2c(s1)CCCC2
  0.641, -0.2, 11.1, -6.1, 1.9, i, -0.3
45) Cc1csc(SCC(=O)N2CCCC2)n1
  0.788, 1.4, -5.5, 15.9, 3.0, ., 0.7
46) CCC(C)(C)NC(=O)C(c1ccncc1)N(C(=O)Cn1nnc2ccccc21)c1cc2c(cc1C(C)=O)OCO2 (stereo unspecified)
  0.683, 0.6, -23.5, 5.2, -2.6, i, -4.1
47) CN(C(=O)c1cccc(NC(=O)Cc2ccc([N+](=O)[O-])cc2)c1)C1CCCCC1
  0.701, 0.2, 2.0, 1.6, 1.3, i, 3.0
48) O=C(CNC(=S)N(CCCN1CCOCC1)Cc1cccs1)N1CCCC1
  0.539*, 1.6, -5.4, 0.1, 0.1, ., -3.7
49) O=C(C1COc2ccccc2O1)N1CCN(c2ccccn2)CC1 (stereo unspecified)
  0.633, 2.5, 3.4, -4.4, -2.1, i, 1.9
50) O=C(O/N=C1\CCS(=O)(=O)c2sccc21)C1CC1
  ., -6.1, ., -1.4, ., i, 1.3
51) CCC(=O)NNc1nc2c(C)c(C)ccc2s1
  0.624, -2.6, 2.0, 4.5, 0.8, i, -3.8
52) Nc1c2c(=O)oc(-c3ccccc3)cc2nn1-c1ccccc1
  0.699, -4.5, 31.0, 5.1, -26.1, ., -1.7
53) O=C(NCc1ccccc1)c1ccc(-c2ccccc2F)o1
  0.674, -4.8, -5.8, 0.6, 2.2, i, 0.1
54) CCOc1cc(CNc2ccc3cn[nH]c3c2)ccc1OC
  0.652, 2.6, 18.3, 2.7, -6.7, ., 4.1
55) Cn1cnnc1SCC(=O)c1ccc2c(c1)CCCC2
  0.679, 0.7, 6.9, -2.5, 7.4, ., -1.9
56) C=CCNC(=S)N1N=C(c2ccco2)CC1c1ccco1 (stereo unspecified)
  ., ., ., 0.0, ., i, 2.8
57) Fc1ccc(N2N=C(c3cccs3)CC2c2ccco2)c(F)c1 (stereo unspecified)
  0.685, 1.2, 70.7, 14.9, i, ., 0.2
58) O=C(NCc1ccccn1)c1cc(S(=O)(=O)N2CCCCCC2)ccc1Cl
  0.697, -1.9, 6.4, -1.2, -0.1, i, 3.8
59) Clc1ccc(OCCn2ccnc2)c2ccccc12
  0.633, -2.7, -92.3, -0.6, 2.6, ., 1.6
60) COCCNC(=O)Cn1cnc2ccc(S(=O)(=O)N3CCC(C)CC3)cc2c1=O
  0.709, -5.3, 3.9, 0.0, 4.5, ., 2.4

Next section:
Second line of a record: Ecoli growth, LANA-H2B inh, ALR inh, Beta2AR agonist, UCH37 inh, FGF22 binding, HNF4A DNA FP
61) O=C(Cn1cc(C(F)(F)F)cc(Cl)c1=O)Nc1cccc(S(=O)(=O)N2CCCCC2)c1
  0.715, 2.1, -4.0, -5.8, -0.4, i, -0.7
62) Cc1nc(C(=O)N2CCCC(Nc3ccc(C)c(C)c3)C2)cs1 (stereo unspecified)
  0.707, -7.0, 99.0*, 0.1, 3.3, i, 4.5
63) Cc1cccc(Cc2c(C)nc3nc(SCC(=O)NCc4ccco4)nn3c2C)c1
  0.722, 2.4, 77.3*, -3.4, 1.1, ., -1.8
64) CN1CCN(C(=O)CN(CCc2ccccc2)S(C)(=O)=O)CC1
  0.686, -4.5, -2.3, 2.4, -2.7, ., -7.5
65) Cc1ccc(C(=O)NC2CC(C)(C)NC(C)(C)C2)cc1
  ., -1.8, 0.7, -6.4, ., i, 2.0
66) c1ccc(-c2ccccn2)nc1
  0.655, -1.1, 1.2, -4.5, 2.0, i, 2.7

Ordered by formula weight (low to high): 5 of the compounds above.
Second line of a record: Ecoli growth, LANA-H2B inh, ALR inh, Beta2AR agonist, UCH37 inh, FGF22 binding, HNF4A DNA FP
59) Clc1ccc(OCCn2ccnc2)c2ccccc12
  0.633, -2.7, -92.3, -0.6, 2.6, ., 1.6
62) Cc1nc(C(=O)N2CCCC(Nc3ccc(C)c(C)c3)C2)cs1 (stereo unspecified)
  0.707, -7.0, 99.0*, 0.1, 3.3, i, 4.5
63) Cc1cccc(Cc2c(C)nc3nc(SCC(=O)NCc4ccco4)nn3c2C)c1
  0.722, 2.4, 77.3*, -3.4, 1.1, ., -1.8
60) COCCNC(=O)Cn1cnc2ccc(S(=O)(=O)N3CCC(C)CC3)cc2c1=O
  0.709, -5.3, 3.9, 0.0, 4.5, ., 2.4
61) O=C(Cn1cc(C(F)(F)F)cc(Cl)c1=O)Nc1cccc(S(=O)(=O)N2CCCCC2)c1
  0.715, 2.1, -4.0, -5.8, -0.4, i, -0.7

High-throughput results as filed in PubChem BioAssay.
